AID504770 = E. coli YBA685 growth inhibition, screen for V. cholerae RctB inhibitors | 0.27% of 130,000 active | E. coli YBA685 rctB-dependent plasmid, OD600 growth, 3 h; stronger effect = lower value | AID 504770 | z-score (test concentration not listed);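 active means z-score under -2 on both plates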;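 further: wells of about 30 µL received 100 nL stock; score is relative to mean and SD of the test wells; the first replicate is given; strong numbers were not always called active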
Ba CapD inh = blocks the Bacillus anthracis CapD enzyme; purified CapD enzyme, fluorescence intensity read-out; stronger effect = lower value; some hits fall short of the stated cut; z-score (concentration not given with the values); 0.23% of 140,000 active; AID 492967;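 active means z-score under -4 in either of two replicates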;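 further: stock transfer was 100 nL into about 40 µL; score is relative to mean and spread of the plate; one replicate is shown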
Numbers without * were called inactive; . = no result given; & = joins results of further samples. An excerpt. The share of hits here may be higher or lower than overall.

nr	mol	AID504770	Ba CapD inh
1	Cc1cc(N2C(=O)CSC2c2cccnc2)no1 (stereo not drawn)	.	1.15
2	CC(=O)Nc1ccccc1O	-0.15	.
3	CCOC(=O)N1CCCC1C(=O)O (stereo not drawn)	-0.1	-0.63
4	CCCCC(CC)C(=O)Nc1ccccc1C#N (stereo not drawn)	-0.75	.
5	Cc1ccc(C(=O)c2ccc(N3CCOCC3)c(F)c2)cc1	-0.05	-0.26
6	Cc1ccc(-c2nc3ccc(Cl)cc3nc2-c2ccc(C)cc2)cc1	.	-0.035
7	CCCNC(=O)CC1Oc2ccccc2NC1=O (stereo not drawn)	-0.25	0.395
8	CN(C)c1ccc(N/C=C/C(=O)c2ccco2)cc1	0.05	-2.41
9	COc1ccc(-c2cc3c(=O)oc4ccccc4c3[nH]2)cc1	0.5	13.4
10	CC1=CCC2C(=O)N(c3ccc(C4CCCCC4)cc3)C(=O)C2C1 (stereo not drawn)	-0.5	0.175
11	CCC[C@@H]1C[C@@H](C(=O)N[C@H]([C@H]2O[C@H](SC)[C@H](O)[C@@H](O)[C@H]2O)[C@H](C)O)N(C)C1	0	-0.15
12	O=C(CCc1ccccc1)N1CCc2ccccc21	1.35	0.165

Values by screen from the entries so far:
AID504770, compounds 7–10 → -0.25, 0.05, 0.5, -0.5
Ba CapD inh, compounds 7–10 → 0.395, -2.41, 13.4, 0.175

Next section:
nr	mol	AID504770	Ba CapD inh
13	CCOC(=O)c1sc(I)c(C#N)c1C	0.2	.
14	CC(C)CC(=O)Nc1nn2c(COc3ccccc3)nnc2s1	0.9	-1.9
15	O=C(Cc1ccc(S(=O)(=O)N2CCOCC2)s1)Nc1ccccc1N1CCOCC1	1.75	.
16	CCN1CCN(c2ncnc3c2cnn3-c2ccccc2)CC1	-0.15	0.595
17	COc1ccc(C2(O)CN(c3cc(C)ccc3C)C3=[N+]2CCCS3)c(F)c1 (stereo not drawn)	.	-0.305
18	OC1(C(F)(F)F)CC(/C=C/c2ccc3c(c2)OCO3)=NN1 (stereo not drawn)	-0.05	88.5
19	Cc1ccnc(NCc2cccc3ccccc23)c1	-0.1	.
20	Cc1ccc(C(=O)OC(C)C(=O)NC2CCCCC2)cc1S(=O)(=O)N1CCCCC1 (stereo not drawn)	-0.8	.
21	Cc1cccc(N2CCN(C(=O)c3cccc(N4C(=O)C5CC=CCC5C4=O)c3)CC2C)c1 (stereo not drawn)	.	-0.61
22	COc1ccc(OC)c2c1CC(C)(C)NC2=O	-0.9	61.6
23	O=C(COc1nsnc1N1CCOCC1)N1CCOCC1	-1.25	0.225
24	CN(NC(=O)c1ccc(Cl)cc1)c1nc2ccccc2nc1C(F)(F)F	.	1.02
25	Nc1ccc(-c2ccccc2C(=O)O)cc1	0	0.06
26	CCOC(=O)c1sc2nc(SCc3cc(F)ccc3F)n(CCCN3CCCC3=O)c(=O)c2c1C	.	-0.58
27	CCOc1cc(/C=C(\C#N)C(=O)NCc2ccco2)ccc1O	0.3	.
28	c1csc(-c2ccc(-c3cccs3)s2)c1	.	57.9
29	CCCCC1(O)CC(C)(C)N([O])C(C)(C)C1	-0.2	.
30	CC1=C(C#N)C(C(F)(F)F)(C(F)(F)F)N=C(Cc2ccccc2)N1	0.1	79.9
31	CCOC(=O)c1ccc(NC(=O)CN2N=C(c3ccc(OC)cc3)CCC2=O)cc1	0.3	0.46
32	FC(F)(F)Oc1ccc(N=Cc2ccc(Cl)cc2)cc1	-0.85	-0.185
33	N#CCc1nc2n(n1)Cc1ccccc1-2	0.1	0.12
34	N#CC(C1CC=CCC1)N1CCOCC1 (stereo not drawn)	.	0.265
35	CC12CC[C@@H](O)CC1CCC1C2CCC2(C)C(C(=O)O)CCC12 (stereo partly drawn)	-0.3	0.01
36	OCCNc1nc(Nc2ccc(Cl)cc2)nc(N2CCOCC2)n1	.	-0.215
37	Clc1ccc(C(=C2CN3CCC2CC3)c2ccc(Cl)s2)s1	.	0.935
38	N#CCCN(C1CCCCC1)S(=O)(=O)c1ccc(Br)cc1	0.05	0.18
39	Cc1cc(NC(=O)Nc2ccc(Cl)cc2)n(-c2ccccc2)n1	0.3	0.065
40	O=C(NC1CC1)c1ccc(CN2C(=O)CCn3nc(-c4ccccc4)cc32)cc1	0.4	0.375
41	COc1ccc(C=NCc2ccccc2)cc1OC	.	0.65
42	Cc1ccc(OCC(O)CN2C(C)CCCC2C)c(C)c1 (stereo not drawn)	-0.35	-0.025
43	Cc1cc(C(=O)COn2nnc3ccc(S(C)(=O)=O)cc32)c(C)n1C	-0.3	.
44	COc1ccc(NC(=O)c2ccco2)cc1OC	-1.2	-1.16
45	N#CCN(CC#N)C(=O)Cc1coc2ccc3ccccc3c12	-0.7	.
46	O/N=C1/c2ccccc2CCC1Cn1ccnc1 (stereo not drawn)	-0.45	0.055
47	CN1C(=O)C(C#N)=C(c2ccccc2)/C(=C/c2ccc(-c3ccc(F)cc3)o2)C1=O	2.05	.
48	FC(F)(F)c1cccc(-c2nc(-c3ccc(C(F)(F)F)nc3)ncc2-c2ccc3ccccc3n2)c1	.	-0.38

By substructure: the compounds so far containing an aryl methoxy group
nr	mol	AID504770	Ba CapD inh
9	COc1ccc(-c2cc3c(=O)oc4ccccc4c3[nH]2)cc1	0.5	13.4
17	COc1ccc(C2(O)CN(c3cc(C)ccc3C)C3=[N+]2CCCS3)c(F)c1 (stereo not drawn)	.	-0.305
22	COc1ccc(OC)c2c1CC(C)(C)NC2=O	-0.9	61.6
31	CCOC(=O)c1ccc(NC(=O)CN2N=C(c3ccc(OC)cc3)CCC2=O)cc1	0.3	0.46
41	COc1ccc(C=NCc2ccccc2)cc1OC	.	0.65
44	COc1ccc(NC(=O)c2ccco2)cc1OC	-1.2	-1.16

The listing continues.
nr	mol	AID504770	Ba CapD inh
49	Cc1cc(-c2onc(C)c2C(=O)Sc2ccccc2)no1	-1.05	-0.355
50	Cc1ccc(-n2ncc(C#N)c2N)cc1	.	-0.28
51	O=C(Nc1nccs1)c1cccc(N2C(=O)C3C4C=CC(C4)C3C2=O)c1 (stereo not drawn)	2.4	-0.44
52	CCOC(=O)Cc1c(-c2ccccc2)c2cc(Br)ccc2[nH]c1=O	0.05	0.79
53	COc1cccc(C2=Nc3ccccc3C2=O)c1	-0.5	0.695
54	O=C(c1ccc(-c2ccccc2)s1)N1CC=C(c2ccccc2)CC1	-0.7	4.9
55	CCNc1nnc(-c2ccc(C)cc2)s1	-0.75	16.6
56	Cc1c(C(=O)Nc2ccccc2C(F)(F)F)sc2nc(SCc3cccc(Cl)c3)n(Cc3ccccc3)c(=O)c12	.	6.52
57	CS(=O)(=O)CS(=O)(=O)NCc1ccc(Cl)cc1	-0.6	-0.385
58	O=C1C=C(N2CCOCC2)C(=O)N1c1ccc(Cl)cc1	1.35	-2
59	NC1(C(=O)O)CCCCC1	-0.8	.
60	COC(=O)C(C)Sc1nc2c(c(=O)n1-c1ccccc1)SCC2 (stereo not drawn)	0.25	0.18

Entries of single compounds, quoted from the list:
Cc1ccc(-n2ncc(C#N)c2N)cc1 is listed with AID504770: .; Ba CapD inh: -0.28
Cc1c(C(=O)Nc2ccccc2C(F)(F)F)sc2nc(SCc3cccc(Cl)c3)n(Cc3ccccc3)c(=O)c12 is listed with AID504770: .; Ba CapD inh: 6.52

(listing goes on)
nr	mol	AID504770	Ba CapD inh
61	O=C(NO)c1cccc2c1-c1ccccc1/C2=N/O	-0.35	0.5
62	COC(=O)Cc1c(C)c2cc(Cl)c(O)cc2oc1=O	0.65	64.7
63	NNC(=O)c1cc(C23CC4CC(CC(C4)C2)C3)[nH]n1	-0.65	-0.065
64	COC(OC)c1ccc2c(N)c(C(=O)c3ccc(Cl)cc3)sc2n1	-0.5	-0.345
65	Nc1ccc(OC(F)F)cc1	1.55	.
66	COc1nc(NCCN2CCOCC2)nc(Nc2ccccc2)n1	.	0.33
67	O=C(/C=C/c1ccc(Cl)cc1)Nc1cccc(Cl)c1	-0.7	-0.39
68	CN(C(=O)c1ccco1)c1ccccc1C(=O)O	0.35	.
69	CC(c1nnnn1CCc1ccccc1)N1CCN(c2cccc(C(F)(F)F)c2)CC1 (stereo not drawn)	0.05	.
70	O=C(O)c1c(-c2ccccc2)[nH]n(-c2ccccc2)c1=O	-0.75	-0.005
71	COC(=O)c1ccc(COC(=O)N2CCC3(CC2)C(=O)NCN3c2ccccc2)cc1	.	0.645
72	O=C1CC(c2ccccc2)c2c(c3ccccc3[nH]c2=O)O1 (stereo not drawn)	0.3	.
73	O=c1[nH]nc(-c2cccc(Br)c2)[nH]1	-0.2	0.23
74	O=C(OCC1COc2ccccc2O1)c1cc2ccccc2[nH]1 (stereo not drawn)	-1.25	.
75	O=C(N/N=C/c1c(O)ccc2ccccc12)c1ccccn1	-1.15	-0.93
76	N#C/C(=C\c1ccccc1)C(=O)N1CCN(Cc2ccccc2)CC1	1.1	.
77	CC(=O)N1CCN(C(=O)C2CC(=O)N(Cc3ccc(C)cc3)C2)CC1 (stereo not drawn)	-0.5	.
78	Cc1ccc(C(CC(=O)Nc2ccccn2)N2Cc3ccccc3C2=O)cc1 (stereo not drawn)	0.95	-0.34
79	O=C(CCCn1c(SCc2ccccc2Cl)nc2ccccc2c1=O)NCc1ccco1	-0.3	0.095
80	COc1ccc(-c2nc3c(c(=O)c4ccccc4n3C)c(=O)n2Cc2ccco2)cc1	0.25	.
81	CC1=CC(=C(C#N)C#N)C=C(C)N1c1ccc(C)c(C)c1	1.1	.
82	Cc1noc(C)c1CSc1n[nH]c(=O)n1Cc1ccco1	0.8	-1.25
83	COC(=O)c1c(C)c(Cl)c(C)c(Cl)c1OC	0.2	.
84	O=C1NC(c2cccc(O)c2O)Nc2sc3c(c21)CCC3 (stereo not drawn)	1.55	.
85	CCC(Sc1nc2ncccc2o1)C(=O)NCCc1ccccc1 (stereo not drawn)	-0.1	-1.94
86	CCOc1cccc(OCC(F)(F)F)c1C#N	.	0.53
87	COc1cccn(Cc2n[nH]c(=S)n2C)c1=O	0	1.19
88	Cc1ccc(C(=O)N(C(C)C)C(C)C)c(Cl)c1	0.1	0.595
89	CCOC(=O)C1=C(C)N(CCN2C(=O)CCC(C(=O)OCC)=C2C)C(=O)CC1	.	-0.455
90	COc1ccc(Cl)cc1S(=O)(=O)N1CCC(C(=O)NCc2ccco2)CC1	-0.85	-0.185
91	CC(C)=C(C#N)n1cnc2ccccc21	0.1	0.465
92	COc1ccc(/C=C2/SC(=O)N(CCc3nnc(N)s3)C2=O)cc1	-0.7	-0.375
93	CCC(Sc1ccccn1)C(=O)Nc1ccc(Cl)cn1 (stereo not drawn)	0.05	0.815
94	CCOC(=O)c1c(NC(=O)c2cc(OC)c(OC)c(OC)c2)sc(C(=O)Nc2cccc(Cl)c2C)c1C	.	-0.165
95	O=C1C=C(/C=C/c2cccs2)C[C@H](c2cccs2)[C@H]1n1nnc2ccccc21	.	5.84
96	CCOc1ccc(-c2c(C#N)c(N)nc3sc(C(=O)c4ccc(OC)cc4)c(N)c23)cc1	.	0.815
97	CC(C)(C)c1ccc(COC(=O)NC2CCCC2OCc2ccccc2)cc1 (stereo not drawn)	.	0.425
98	O=S(=O)(c1cccc(-c2nnc(-c3ccccc3)o2)c1)N1CCCC1	0.25	-0.665
99	O=C(O)/C(=C\c1ccncc1)c1ccc(S(=O)(=O)N2CCCCC2)s1	2.35	.
100	Cc1nnc2ccc(NCCC3=CCCCC3)nn12	-0.3	38.4
101	COc1ccc(NC(=O)CSCc2nc(-c3ccc(C(C)C)cc3)no2)cc1	1.65	.
102	Cc1ccc(-n2ncc3c(=O)n(Cc4c(F)cccc4Cl)cnc32)cc1C	-0.55	0.37
103	N#Cc1ccccc1N/C=C(\C(N)=S)C(F)(F)F	-1.1	-1.15
104	O=C(O)Cn1cc(C=C2C(=O)NC(=O)NC2=O)c2ccccc21	-0.25	-3.75
105	C/C=C/N1C(=S)NC2(O)c3ccccc3C(=O)C12O (stereo not drawn)	.	-0.455
106	Clc1ccc(CSc2nnc3c(n2)[nH]c2ccccc23)cc1Cl	.	0.125
107	CC(C)SC1=NN2CCCC(=O)N=C2S1	-0.45&1.85	-0.305&-0.195
108	CC(=O)N1N=C2CCCCC2C1C(C)C (stereo not drawn)	-0.9	-0.05
109	CCCCN(CC)C(=O)Nc1ccc2c(c1)N(CC)C(=O)c1ccccc1S2	-1.85	-0.485
110	CCOC(=O)CC1=Nc2ccccc2NC(=O)C1	0.3	-0.435
111	CC(=O)Oc1ccc2cc(-c3nc4ccccc4n3C)c(=O)oc2c1	-1.1	12.2
112	CCOC(=O)c1ccc(NC(=O)C2CC(=O)N3CCCN=C3S2)cc1 (stereo not drawn)	1.05	.
113	O=C(Nc1ccc(Cl)cc1)C1(S(=O)(=O)c2ccc(Cl)cc2)CC1	-0.4	0.005
114	CCCN1C(=O)C(O)(C2CC(=O)CC(C)(C)O2)c2ccccc21 (stereo not drawn)	-0.55	-0.185
115	CCc1nnc(NC(=O)c2cc(S(=O)(=O)N3CCc4ccccc43)cn2C)s1	0.2	-0.175
116	O=C(O)CN1C(=O)C2C3C=CC(C3)C2C1=O (stereo not drawn)	0.8	0.49
117	Cc1ccccc1C(=O)OCC1CCCN2CCCCC12 (stereo not drawn)	-1.25	-0.215
118	O=C(/C=N/OCc1cc(=O)n2ccsc2n1)Nc1cccc(C(F)(F)F)c1	-0.4	.
119	COCCNC(=O)c1ccc2c(=O)n(Cc3ccco3)c(SCc3cc(=O)n4ccccc4n3)nc2c1	.	3.52
120	Cc1cccc(-c2nc3scc(-c4ccccc4)n3n2)c1	1.85	-0.445
121	COc1ccccc1NC(=O)c1nnc2c(-c3ccccc3)c(C)nn2c1C	-0.6	.
122	COc1cc(O)c(/C=N/NC(=O)CCCO)c(OC)c1	.	-2.17
123	C[C@@H]1OC(Oc2c(-c3ccc(O)c(O)c3)oc3cc(O)cc(O)c3c2=O)[C@H](O)[C@H](O)[C@H]1O (stereo partly drawn)	.	-0.74

Assay outcomes (PubChem)
